High-throughput results as filed in PubChem BioAssay.
Measles inh: inhibitors of measles virus growth in infected cells; infected Vero cells, GFP fluorescence, 64 h; stronger effect = lower value; z-score (concentration not given with the values); 33,000 tested, 0.1% active; AID 745;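 active = z-score under -3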;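 note: score is relative to mean and SD of the compound wells of a plate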
An asterisk follows results filed as active. This is a subset, so the mix of outcomes need not match the whole.

mol,Measles inh
COC(=O)c1ccccc1C(=O)N1CCOCCN(C(=O)c2ccccc2C(=O)OC)CCOCC1,1.82
COc1ccc(COC(=O)C2=C(C)NC3=C(C(=O)CCC3)C2c2coc3ccccc3c2=O)cc1 (configuration not stated),1.99
Cc1c(Cl)c([N+](=O)[O-])nn1CCCC(=O)Nc1cc(Oc2ccccc2)cc([N+](=O)[O-])c1,0.2
CCOc1ccc(-n2ccnc2SCC(=O)Nc2ccc(CC)cc2)cc1,-1.21
Cc1ccc(NS(=O)(=O)c2ccc(NS(=O)(=O)c3ccc4c(c3)OCCO4)cc2)cc1C,-0.44
Cc1ccc(Cl)cc1NC(=O)COc1ccccc1Br,-1.01
COc1cc(NC(=O)COc2ccc(Cl)c(C)c2)ccc1NC(=O)c1ccco1,-0.54
CC1=C(C(N)=O)C(c2ccccc2)NC(=O)N1 (configuration not stated),0.67
Cc1ccc2c(c1)C(c1ccc(F)cc1)N(C(=O)C1CCCCC1)CC(=O)N2 (configuration not stated),-0.42
O=C(c1cccc([N+](=O)[O-])c1)c1ccc2c(c1)C(=O)N(c1ccccn1)C2=O,0.04
CCOC(=O)c1cc2c(=O)n3ccccc3nc2n(CCOC)c1=NC(=O)c1ccccc1C,0.14
O=C1c2ccccc2C(=O)N1CCC(=O)N(C1CCCCC1)C1CCCCC1,0.63
CC1=NC(=S)C2C(=O)OC(=Cc3ccc(-c4cccc([N+](=O)[O-])c4)o3)C2=C1 (configuration not stated),-0.27
O=C(CCCCCN1C(=O)c2cccc([N+](=O)[O-])c2C1=O)Nc1ccccc1,-0.54
c1ccc(-c2csc3ncnc(NCc4ccc5c(c4)OCO5)c23)cc1,-0.2
CCOC(=O)C1=C(c2ccccc2)NC(=S)NC1c1ccc(F)cc1 (configuration not stated),0.13
COc1ccc(C2C(C(=O)OCCc3ccccc3)=C(C)NC3=C2C(=O)CCC3)cc1OC (configuration not stated),-0.65
COc1cc(C(=O)N2CCc3ccccc32)c([N+](=O)[O-])cc1OC,0.48
CCc1ccc(S(=O)(=O)N(C(C)=O)c2ccc3oc(C)c(C(=O)OC)c3c2)cc1,-0.03
COc1cc(C2NC(=S)NC(C)=C2C(=O)Nc2ccccn2)ccc1OCc1ccccc1 (configuration not stated),1.01
COc1ccc(CNC(=O)c2ccc3c(=O)n(-c4cc(OC)ccc4OC)c(=S)[nH]c3c2)cc1,0.3
CCN(CC)C(=S)Oc1cccc(C(=O)Nc2ccc(I)cc2)c1,-0.59
O=C(O)CN1CCN(Cc2ccc(F)cc2)C1=O,-0.59
COc1ccc(Nc2ncc(C(=O)N3CCN(c4ccccn4)CC3)c3ccccc23)cc1,-1.15
CC(C)CCOc1ccc(C(=O)NCC2OCCc3ccccc32)cc1 (configuration not stated),-0.18
CCOc1cc(C2C(C(=O)OCCc3ccccc3)=C(C)NC3=C2C(=O)CCC3)cc(Cl)c1O (configuration not stated),-0.56
COc1ccccc1-n1nc(C(=O)NCc2ccco2)c2ccccc2c1=O,-0.66
Cc1ccc(C)c(C(O)(c2ccccc2)c2cnc(C(C)C)n2C)c1 (configuration not stated),-1.4
COCCn1c(SCc2ccc(C)cc2)nc2c1c(=O)[nH]c(=O)n2C,-0.33
CCN(CC)c1ccc2cc(C(=O)Nc3cc(C(F)(F)F)ccc3Cl)c(=O)oc2c1,1.21
CC1=Nc2cc(C)c(C)cc2NC(=O)C1,0.62
COc1ccc(N=C(C)N)cc1,2.02
CCC1CCC2(CC1)SCC(=O)N2c1ccc(F)cc1 (configuration not stated),-0.63
O=C(O)CCc1n[nH]c(=O)[nH]c1=O,1.05
Cc1ccc(C(=O)Cc2cc3ccccc3oc2=O)cc1C,0.17
CCCCN(C)S(=O)(=O)c1ccc(C(=O)Nc2cccc3c2C(=O)c2ccccc2C3=O)cc1,0.58
Cn1c(=O)[nH]c(=O)c2c1nc(SCCO)n2Cc1ccc(Cl)cc1,-0.67
Cc1cccc(-n2c(C)cc(C(=S)N3CCOCC3)c2C)c1C,0.42
O=C(O)c1cc(-c2ccccc2)n(-c2ccccc2Cl)n1,-0.48
Cc1ccc(NC(=O)c2c([N+](=O)[O-])cnn2C)cc1C,-0.29
CC(C)(C)c1ccc(C(=O)Nc2nnc(-c3ccc(F)cc3)s2)cc1,0.66
COc1ccc(OC)c(NC2=C(Cl)C(=O)N(c3cccc(Cl)c3)C2=O)c1,1.52
COc1cccc(-c2nc(S(=O)(=O)c3ccc(C)cc3)c(N3CCOCC3)o2)c1,-1.12
CCn1c(=NC(=O)c2ccc(S(=O)(=O)N3CCCCC3C)cc2)sc2cc(C(=O)OC)ccc21 (configuration not stated),0.77
COc1ccc(C)cc1NC(=O)CNS(=O)(=O)c1ccc(Br)s1,-0.08
Cc1ccc(-c2nc3c(C)cccn3c2Nc2ccccc2C)s1,-0.95
CCOc1cc(C2C(C(=O)OC)=C(C)NC3=C2C(=O)CC(c2ccc(OC)cc2)C3)cc(Cl)c1O (configuration not stated),-0.3
CCCOc1ccccc1NC(=O)c1ccc(N)cc1,-0.82
CCC(Sc1ncccc1C(=O)O)C(=O)NCc1ccco1 (configuration not stated),-0.37
Cc1nc2nc(SCC(=O)NC3CCCC(C)C3C)nn2c(C)c1Cc1ccccc1 (configuration not stated),0.05

Additional compounds follow.
mol,Measles inh
COC(=O)c1c(NC(=O)CSc2nnc3sc4ccccc4n23)sc2c1CCCCC2,-0.31
N#Cc1ccc(NC(=O)c2cc3nc(-c4ccc5c(c4)OCO5)cc(C(F)(F)F)n3n2)cc1,1.16
Cc1cccc(Nc2sc(C(=O)c3ccc(Cl)cc3)c(N)c2C(N)=O)c1,0.6
CCOc1ccc(C2Oc3nc(SC)nnc3-c3ccccc3N2C(=O)CC)cc1C (configuration not stated),0.86
Cc1ccc(-n2nc(C)c(C=Cc3onc(C)c3[N+](=O)[O-])c2C)cc1,-1.74
COC(=O)c1ccccc1NC(=O)c1ccccc1Br,-0.66
CCCCc1nc2ccccc2n1CCCOc1ccccc1,0.22
COc1ccc(-c2nn(C)c3sc(C(=O)Nc4ccc(C)c(F)c4)cc23)cc1OC,0.02
COc1cc2c(cc1OC)C1C(C(=O)NCc3ccc(C)o3)c3ccccc3C(=O)N1CC2 (configuration not stated),-1.44
CC1=C(C(=O)N2CCOCC2)C(c2ccc(Cl)cc2)n2c(nc3ccccc32)N1 (configuration not stated),0.25

Structures from the list above that contain a COOH group (4):
mol,Measles inh
O=C(O)CN1CCN(Cc2ccc(F)cc2)C1=O,-0.59
O=C(O)CCc1n[nH]c(=O)[nH]c1=O,1.05
O=C(O)c1cc(-c2ccccc2)n(-c2ccccc2Cl)n1,-0.48
CCC(Sc1ncccc1C(=O)O)C(=O)NCc1ccco1 (configuration not stated),-0.37

Grouped by structure, the compounds so far with two or more sulfur atoms (four)
mol,Measles inh
Cc1ccc(NS(=O)(=O)c2ccc(NS(=O)(=O)c3ccc4c(c3)OCCO4)cc2)cc1C,-0.44
CCn1c(=NC(=O)c2ccc(S(=O)(=O)N3CCCCC3C)cc2)sc2cc(C(=O)OC)ccc21 (configuration not stated),0.77
COc1ccc(C)cc1NC(=O)CNS(=O)(=O)c1ccc(Br)s1,-0.08
COC(=O)c1c(NC(=O)CSc2nnc3sc4ccccc4n23)sc2c1CCCCC2,-0.31

Next structures follow:
mol,Measles inh
Oc1ccccc1-c1nc(N2CCCCC2)c2ccccc2n1,-0.39
CCOc1ncnc2c1[nH]c1ccc(OC)cc12,-1.08
O=C(COC(=O)c1ccco1)OCN1C(=O)c2ccccc2C1=O,0.12
C(=C1CCc2cc3c(nc21)C(=Cc1ccc2c(c1)OCO2)CC3)c1ccc2c(c1)OCO2,-0.42
CC(=O)Nc1ccc2nc(NC(=O)C3CCCCC3)sc2c1,-0.34
O=C1C(Cc2c[nH]c3ccccc23)N=C2c3ccccc3N=C(SCc3cccc(F)c3)N12 (configuration not stated),-0.23
CCCCOC(=O)Cc1c(O)c2ccccc2[nH]c1=O,2.09
O=C(NCCN1CCOCC1)C1CCC(CNS(=O)(=O)c2ccccc2)CC1 (configuration not stated),0.71
Cc1ccc(C(=O)OC(C)CN2CCCC2)cc1 (configuration not stated),0.21
COc1ccccc1CNC(=O)c1c[nH]c2ccc(S(=O)(=O)N(C)Cc3ccccc3)cc2c1=O,0.74
O=C(Nc1ccccc1O)c1cccc(S(=O)(=O)N2CCCC2)c1,-0.65
Cc1cc(=O)oc2cc(OC(=O)c3ccc([N+](=O)[O-])cc3Cl)ccc12,-0.01
CC1=CC(C)(C)NC(=S)N1c1c(C)n(C)n(-c2ccccc2)c1=O,-0.49
COC(=O)c1ccc(COc2ccc3c4c(c(=O)oc3c2)CCC4)o1,0.53
O=C(NCc1ccco1)c1ccc(Br)cc1,0.45
Cc1ccc(CCNC(=O)c2ccc3nc4ccccc4c(=O)n3c2)cc1,0.6
C=CCn1c(N)c(C(=O)OC)c2nc3ccccc3nc21,-0.35
COC(=O)c1ccccc1NC(=O)c1ccc(N2CC3CC(C2)c2cccc(=O)n2C3)c(NC(=O)c2ccccc2Cl)c1 (configuration not stated),-0.63
COc1ccc(C(=O)Nc2nc(-c3ccc(C(C)(C)C)cc3)cs2)c(OC)c1,1.6
CCc1nc2ccccc2n1CC(O)COc1ccc(F)cc1 (configuration not stated),0.1
O=C(Nc1ccc(-c2nc3ccccc3[nH]2)cc1)c1cccc(C(F)(F)F)c1,-0.15
Cc1ccc(S(=O)(=O)c2cc(O)c3ccccc3c2NS(=O)(=O)c2ccc(Cl)cc2)cc1,0.66
O=C(Nc1nc(-c2cc3ccccc3oc2=O)cs1)c1ccccc1Cl,-2.7
O=C(Nc1ccccc1O)c1ccc(N2C(=O)C3C4C=CC(C4)C3C2=O)cc1 (configuration not stated),-1.61
COCCNC(=O)CCNS(=O)(=O)c1ccc(C)cc1,-1.21
COc1cccc(C(=O)Oc2c(S(=O)(=O)c3ccc([N+](=O)[O-])cc3)c(C)nn2-c2ccccc2)c1OC,-0.19
COC(=O)C1=C(C)NC2=C(C(=O)CC(c3cccs3)C2)C1c1cccc(O)c1 (configuration not stated),-0.86
Cc1ccnc(NS(=O)(=O)c2ccc(NC(=O)c3ccc(C)c(C)c3)cc2)n1,-0.17
Cn1c(NCCCO)nc2c1c(=O)[nH]c(=O)n2C,-0.2
O=[N+]([O-])c1c(Cl)ncnc1N1CCCCC1CO (configuration not stated),0
CN1C(=O)c2ccccc2C(C(=O)NC2CC2)C1c1c[nH]c2ccccc12 (configuration not stated),-0.59
CCN(CC)C(=O)C1CCCc2c1[nH]c1ccc(Cl)cc21 (configuration not stated),-0.35
O=[N+]([O-])c1ccc(S(=O)(=O)C(F)(F)F)cc1,-1.72
CCC(=O)N1CCc2cc(Br)cc(S(=O)(=O)NCCN3CCCC3)c21,-0.39
Oc1ccc2c(c1)c1c3n2CCNC3CCC1 (configuration not stated),-0.84
COC(=O)c1ccc(C2Oc3ccc(OC)cc3C3CC(c4ccc(OC)cc4)=NN32)cc1 (configuration not stated),0.43
CCN(CC)CC#CC(O)(c1ccccc1)c1cccc(F)c1 (configuration not stated),-0.59
NS(=O)(=O)c1ccc(N=Cc2ccc(F)cc2)cc1,0.47
CC(=O)NC1=NN(C(C)=O)C(c2coc3ccccc3c2=O)S1 (configuration not stated),-0.11
CCOC(=O)c1c(NC(=O)CCCn2nc([N+](=O)[O-])c(Cl)c2C)sc(C)c1C,1.18
CC1(C)CC(=O)C2=C(C1)Nc1nc(SCc3ccccc3F)nn1C2c1cccs1 (configuration not stated),0.63
Cc1cc(N2CCCC2)nc(-c2ccccc2)n1,8.4
COC(=O)Cn1c(CN2CCCCC2)nc2c1c(=O)n(C)c(=O)n2C,-2.1
Cc1nc2ccc(C(=O)NC3CCCCC3)cc2nc1C,0.57
COc1ccc(S(=O)(=O)N2CCCC2C(=O)O)cc1OC (configuration not stated),0.8
C=CCn1c(-c2cccnc2)nn(C(=O)c2cc(OC)c(OC)c(OC)c2)c1=S,0.11
CC(=O)c1cccc(NC(=O)CCNS(=O)(=O)c2cccs2)c1,-0.21
Oc1cccc2ccc(N3CCOCC3)nc12,-0.22
CCN(CC)c1ccc(C2C(C(=O)Nc3cccc(F)c3)=C(C)NC3=C2C(=O)CC(C)(C)C3)cc1 (configuration not stated),-0.61
CC1CCCc2sc3nc[nH]c(=O)c3c21 (configuration not stated),1.05

More compounds
mol,Measles inh
COc1ccccc1N1CCN(C(=O)CCc2ccccc2)CC1,0.46
C=CCNC(=O)CC1Nc2c3ccccc3nc(=S)n2C1=O (configuration not stated),0.04
COc1ccc(-c2noc(COc3ccc(Br)cc3C)n2)cc1OC,-0.28
COc1ccc(C2NC(=S)NC(C)=C2C(N)=O)cc1C (configuration not stated),-0.09
O=C(c1cc(-c2ccc(Br)cc2)on1)N1CCCc2ccccc21,1.63
CN(C)c1ccc(NS(=O)(=O)c2ccc([N+](=O)[O-])cc2)cc1,-0.23
O=C(c1cc2n(n1)C(C(F)(F)F)CC(c1ccc(Br)cc1)N2)N1CCOCC1 (configuration not stated),0.9
CCOc1cccc(NC(=O)C2CC(=O)N(C)C(=Nc3ccc(C)c(C)c3)S2)c1 (configuration not stated),-0.49
CCCn1c(=S)[nH]c2cc(C(=O)NCc3ccccc3Cl)ccc2c1=O,0.33
O=C(Nc1ccc(Nc2ccccc2)cc1)N1CCOCC1,1.43

Taken from above:
Measles inh result of CCCn1c(=S)[nH]c2cc(C(=O)NCc3ccccc3Cl)ccc2c1=O reads 0.33
Measles inh result of CN(C)c1ccc(NS(=O)(=O)c2ccc([N+](=O)[O-])cc2)cc1 reads -0.23
